# MbtI inh: MbtI salicylate synthase inhibition. purified MbtI enzyme, fluorescence intensity read-out. inhibition, %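 (about 17 µg/mL by stock and volumes)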. 100,000 compounds, 0.89% hits. AID 493033;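 active means above 50% in both replicates, above 80% if mildly self-fluorescent; inactive means the rest, strongly fluorescent compounds included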;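 further: 0% = mean of negative and 100% = mean of positive controls; one replicate is shown; some compounds called inactive have numbers as strong as hits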
# Target sequence (P9WFX0 whole entry, looked up): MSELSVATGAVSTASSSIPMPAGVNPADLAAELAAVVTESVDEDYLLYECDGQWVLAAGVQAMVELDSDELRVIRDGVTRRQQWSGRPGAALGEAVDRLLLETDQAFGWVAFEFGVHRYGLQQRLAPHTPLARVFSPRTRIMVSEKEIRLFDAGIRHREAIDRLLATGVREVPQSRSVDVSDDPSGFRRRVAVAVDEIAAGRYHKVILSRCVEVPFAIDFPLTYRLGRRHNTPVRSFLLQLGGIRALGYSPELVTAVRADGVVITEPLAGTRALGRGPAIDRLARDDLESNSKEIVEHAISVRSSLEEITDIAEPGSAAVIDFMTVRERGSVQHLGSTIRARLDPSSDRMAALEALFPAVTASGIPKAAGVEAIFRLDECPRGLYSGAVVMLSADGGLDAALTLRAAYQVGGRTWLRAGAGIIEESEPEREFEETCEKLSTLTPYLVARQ
# Polio RdRp inh: inhibitors of poliovirus RNA polymerase binding and polymerization | P03300 | poliovirus polymerase elongation, fluorescence polarization; active compounds read low | % elongation, % (compound at 16.7 µg/mL) | 150,000 compounds, 0.66% hits | AID 588519; in the data active means % elongation below about 90%; further: some results filed as inactive read as strong as hits
# MenB inh: inhibitors of Mycobacterium tuberculosis MenB enzyme; MenB enzyme assay, absorbance read-out; some hits fall short of the stated cut; AID 540299; 100,000 compounds, 0.43% hits; inhibition, %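 (about 12 µg/mL by stock and volumes)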; P9WNP5;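 active means mean of two replicates above 30%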;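 further: 0% = no compound and 100% = wells with inactive enzyme; the first replicate is given; strong numbers were not always called active; inactives centre near -10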
# Target sequence (P9WNP5 whole entry, looked up): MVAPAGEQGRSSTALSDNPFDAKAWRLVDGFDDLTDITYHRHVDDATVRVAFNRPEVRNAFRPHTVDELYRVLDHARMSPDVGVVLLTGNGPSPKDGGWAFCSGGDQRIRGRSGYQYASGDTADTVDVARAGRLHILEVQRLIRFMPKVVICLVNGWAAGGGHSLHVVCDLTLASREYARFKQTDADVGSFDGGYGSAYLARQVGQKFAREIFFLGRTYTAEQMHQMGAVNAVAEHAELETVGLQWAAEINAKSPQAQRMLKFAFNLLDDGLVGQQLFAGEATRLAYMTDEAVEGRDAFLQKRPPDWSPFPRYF
# Polio RdRp inh intensity: also measured in Polio RdRp inh; calls as there; % elongation; measured here: total intensity read-out; formula for this scale not given here;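 total fluorescence in place of polarization; lower means less elongation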
# Active calls of the source: *; i = inactive; . = not tested or not shown; & = joins results of further samples.
SMILES,MbtI inh,Polio RdRp inh,Polio RdRp inh intensity,MenB inh
O=c1[nH]c(O)c(C=Nc2ccc(F)c(Cl)c2)c(=O)[nH]1,.,101,86,-41
O=S1(=O)CCN2N=C(C(F)(F)F)SC2=N1,-6,109,109,-4
CN/N=C/c1c(O)ccc2ccccc12,32,104,150,-36
COc1ccc(Cc2nnc(SCC(=O)N3CCCC3)o2)cc1,-2,103,103,-10
Cc1ccc(-c2nn3c(C)nnc3c3ccccc23)cc1S(=O)(=O)NCc1ccco1,25,99,101,-16
CC1(C)CC2CC(C)(CN2c2ncnc3ccccc23)C1 (configuration not stated),2,100,102,-33
CCOC(=O)c1c(NC(=O)CSc2nnc3sc4ccccc4n23)sc(C(=O)N(CC)CC)c1C,18,104,103,-15
CC(C)NC(=S)NNc1ccc(C(=O)O)cc1,22,103,104,-7
Cc1nn(-c2ccccc2)c2sc(C(=O)N3CCc4ccccc4C3)cc12,-5,97,105,-14
CSc1nccc(-c2cccs2)n1,16,98,103,8
COc1ccc2nc(SCC(O)c3ccccc3)[nH]c2c1 (configuration not stated),-9,100,106,.
CC(C)c1cccc(C(C)C)c1NC(=O)CNC(C)(C)C,-7,102,104,-5
O=c1c2ccccc2c(-c2ccc(Cl)cc2)nn1CN1CCOCC1,4,98,94,-14
Nc1ccc(N2CCOCC2)cc1C(F)(F)F,-256,104,101,-18
Cn1ncc2c1ncn1nc(-c3ccccc3)nc21,11,103,103,4
O=C(CCc1c[nH]c2ccccc12)NCC1CCCO1 (configuration not stated),-14,103,104,-31
Cc1cc(=O)oc2cc(OCC(=O)O)ccc12,107,105,101,-17
c1ccc(C[n+]2cccc(-c3ccccc3)c2)cc1,43,104,102,8
Cc1ccc(C)c(N/C=C/C(=O)C(C)(C)C)c1,-4,101,100,-19
O=C(COC(=O)Cc1ccc(Br)cc1)NCC1CCCCC1,-2,101,105,.
Cc1ccccc1N1C(=O)c2ccccc2C1Nc1ccc2c(c1)OCCO2 (configuration not stated),30,99,97,-20
C=CCn1c(OCc2ccccc2)n[nH]c1=S,44,101,105,-43
CCN(CC)C(=O)CSc1nc(-c2ccc(F)cc2)nc2c1Cc1c(CO)cnc(C)c1O2,1,102,102,-5
CC(=O)N1CCN=C1SCc1ccc(C)cc1,-1,100,105,13
COc1ccccc1N1CCN(Cc2ccc(C(=O)NC(C)C)cc2)CC1,.,105,102,5
SMILES,MbtI inh,Polio RdRp inh,Polio RdRp inh intensity,MenB inh
Cc1ccc2ncc(-c3ccc(Cl)c(C)c3)nc2c1,6,111,112,-10
CCCCOC(=O)c1cccc(NC(=O)C(C)C)c1,3,104,103,-19
Cc1cc(C(=O)NC2CCCCC2)no1,-10,100,104,-23
CCc1c(C)sc(NC(=O)c2noc3c2CC(C(C)(C)C)CC3)c1C#N (configuration not stated),36,98,98,-16
NNC(=O)Cn1cc(C(F)(F)F)ccc1=O,14,104,106,-14
C=CCn1c(SCC(=O)Nc2ccc(F)cc2)nc2ccccc2c1=O,-8,102,102,-2
CCN(CC)c1ccc(CNC(CC(=O)O)c2c[nH]c3ccccc23)cc1 (configuration not stated),4,100,102,-9
Cc1ccc(-n2c(O)c(/C=N/Nc3nc4cc(S(=O)(=O)N5CCOCC5)ccc4o3)c3ccccc3c2=O)c(C)c1,12,44,240,-24
O=C(OCCN1CCOCC1)c1ccccc1,-12,105,100,-9
COc1ccc(CN2CCCC(C(=O)Nc3ccc(OC)c(OCC(C)C)c3)C2)cc1OC (configuration not stated),3,103,102,-4
CCN(CC(=O)NCc1ccc(F)cc1)C(=O)c1cc(=O)[nH]c2ccccc12,25,102,100,-18
CCN1/C(=C\C(=O)C2CC2)Sc2ccccc21,58,101,101,-3
CCCc1c(O)nc(SCc2ccccc2)[nH]c1=O,-5,101,96,0
Cc1ccc2oc(-c3cc(NC(=O)C(C)C)cc(C)c3O)nc2c1,-5,103,102,5
S=C(NCCN1CCOCC1)Nc1ccc(Nc2ccccc2)cc1,-3,104,103,-19
CCN1CCSc2ccc(C(=O)NCc3ccco3)cc21,-40,103,107,12
CSc1ncccc1C(=O)OCCN1C(=O)c2ccccc2C1=O,-7,107,112,6
COC(=O)c1ccc(NCN2C(=O)C3CC=CCC3C2=O)cc1 (configuration not stated),-2,102,103,6
O=C1CN(C(=O)CCC(=O)c2cccs2)c2ccccc2N1,2,96,89,.
CCC1(CC)C(=O)C=CNC1=O,8&-3,100&101,102&102,-4&-14
Cc1ccc(S(=O)(=O)NCC(=O)NN=C2CCCCC2)cc1,10,102,102,-20
Cc1ccc(Nc2ccc3ncnc4c3c2C(=O)c2ccccc2-4)cc1,11,101,99,-4
O=C1CC2(CCN(C(=O)C3CCCC3)CC2)Oc2ccccc21,107,100,100,-15
CCOC(=O)N1CCC(NC(=O)CS(=O)(=O)Cc2nc(-c3ccc(C)cc3)oc2C)CC1,7,102,109,-13
n1onc2c1NC1Nc3nonc3NC1N2 (configuration not stated),-11,81,174,-32
SMILES,MbtI inh,Polio RdRp inh,Polio RdRp inh intensity,MenB inh
CCCCn1c(CCC)nc2ccccc21,-6,107,111,-4
COc1ccc(/C=C/C(=O)NCCCN2CCCCCC2)cc1,22,104,107,-11
Cc1nc2ccccn2c1-c1ccnn1C(=O)c1ccno1,99,105,110,-8
CC(CC(=O)NCc1ccccc1)CC1=NS(=O)(=O)c2ccccc2N1 (configuration not stated),12,103,97,-15
O=C(O)C1CC=CCC1C(=O)NCc1ccccc1 (configuration not stated),-7,102,103,-7
Cc1nc(-c2cccs2)sc1C(=O)OCc1cc(=O)n2c(C)csc2n1,-21,102,94,-18
COCCn1c(CCC(=O)NCc2ccc(OC)cc2)nc2cccnc21,7,102,108,-6
O=C1CC(c2ccco2)Cc2nc(NCc3ccccc3)ncc21 (configuration not stated),.,109,104,-17
Cc1cc(NC(=O)OC2CCCC2)ccc1NC(=O)OC1CCCCC1,-15,102,102,-29
COc1ccc(N2CCN(c3cc(C)nc4ccc(OC)cc34)CC2)cc1,108,105,105,-15
Cc1cc(C)n(-c2ccc(-n3cccc3/C=C(/C#N)S(=O)(=O)c3ccccc3)cc2)n1,1,115,122,-24
Cc1c(Cl)cccc1NC(=S)NCC(c1ccccc1)c1c[nH]c2ccccc12 (configuration not stated),-8,103,107,-41
Cc1cc(C)c2c(C(=O)O)cc(=O)[nH]c2c1,57,101,97,14
CNC(=O)c1sc2nc(C)cc(C)c2c1-n1cccc1,9,104,109,-5
O=C(COC(=O)c1ccncc1)NCc1ccccc1,-9,103,97,.
Cc1c(C)c2ccc(O)c(CN(C)C)c2oc1=O,125,98,99,-24
CCCCN(C)C(=O)Cn1cc(S(=O)(=O)NC)c(S(=O)(=O)NC)c1,0,101,98,15
O=C(NCC1CCN(c2ccc(S(=O)(=O)N3CCOCC3)cc2)CC1)c1ccccc1,14,100,102,-91
COC(=O)C1=CN(C)C=C(C(=O)OC)C1c1ccc(C(F)(F)F)cc1,-93,103,103,-21
O=S(=O)(Nc1ccc(N2CCOCC2)cc1)c1ccccc1,0,98,103,-1
COc1nc(NCc2ccccc2)nc(NC2CCCCC2)n1,-16,99,103,-10
O=C(NC1CCCc2ccccc21)c1ccccc1 (configuration not stated),-8,101,106,20
CCN(CC(=O)NCc1cccs1)C(=O)c1cccc(OC)c1,-5,100,96,-35
O=C(CSc1cccc[n+]1[O-])c1ccc2ccccc2c1,49,98,97,.
CCOCc1cnc(C)nc1NCC(=O)c1c(C)[nH]c2cc(C)ccc12,3,102,97,-13

# Whole records, quoted from the list. Screens in order: MbtI inh | Polio RdRp inh | Polio RdRp inh intensity | MenB inh
# Results for CCN(CC(=O)NCc1cccs1)C(=O)c1cccc(OC)c1 → -5 | 100 | 96 | -35
# Results for CCCCN(C)C(=O)Cn1cc(S(=O)(=O)NC)c(S(=O)(=O)NC)c1 → 0 | 101 | 98 | 15
# Results for COc1ccc(N2CCN(c3cc(C)nc4ccc(OC)cc34)CC2)cc1 → 108 | 105 | 105 | -15
# Results for Cc1nc(-c2cccs2)sc1C(=O)OCc1cc(=O)n2c(C)csc2n1 → -21 | 102 | 94 | -18
# Results for O=C(CSc1cccc[n+]1[O-])c1ccc2ccccc2c1 → 49 | 98 | 97 | .

# Further records:
SMILES,MbtI inh,Polio RdRp inh,Polio RdRp inh intensity,MenB inh
CC1=CC(C)C2C(=O)N(c3ccc(C(=O)O)cc3)C(=O)C2C1 (configuration not stated),-7,103,105,.
Cc1ccccc1Nc1nc(N)nc(-c2cc3ccccc3o2)n1,30,100,102,-19
CN1CCN(S(=O)(=O)c2ccccc2C(F)(F)F)CC1,4,89*,96*,-13
O=C(O)CCNC(=O)c1ccc2c(c1)OCCO2,.,107,108,-15
COc1ccc(-c2nnc(SCC(=O)OC3CC(C)CCC3C(C)C)o2)cc1 (configuration not stated),6,106,102,-6
CCCN(CC1CC1)Cn1ncn(-c2ccccc2)c1=S,12,97,101,-11
CCN(C(=O)CSc1nnc(C)s1)c1ccccc1,-5,102,103,-16
COC(=O)c1cc(C(=O)c2cc(Br)ccc2O)coc1=N,-4,108,117,-11
O=C(Cn1nc(-c2ccco2)ccc1=O)NC1CCCCC1,i,102,100,3
COc1cc2c(cc1OC)C(c1cc(Br)ccc1O)N(C)CC2 (configuration not stated),2,99,98,-10
Cc1ccc(C(=O)Cc2nc3ncccc3[nH]c2=O)cc1,.,112,157,-16
CCOc1ccc(C2Oc3nc(SC)nnc3-c3ccccc3N2C(=O)CC)cc1 (configuration not stated),-4,100,102,-13
O=C(O)c1cccc(NC2SC(=O)N(c3ccccc3)C2=O)c1 (configuration not stated),i,102,103,-23
COC(=O)c1ccc(-c2ccco2)n1Cc1nc(-c2cccc(Cl)c2)oc1C,30,102,98,4
O=C(N/N=C/c1ccc(OC2CSC2)cc1)c1ccncc1,1,99,102,-4
CCCCN(C)C(=O)C1(c2ccc(OC)cc2)CCOCC1,-3,100,103,10
CN(CCc1ccccn1)C(=O)Nc1ccccc1,-10,99,104,7
CCOc1cc(/C=N/NC(=O)c2cccnc2)ccc1OCC(=O)N1CCCCC1,18,107,102,-20
CCOC(=O)N1CCC(NC(=O)Nc2cn(C)c(=O)c3ccccc23)CC1,2,101,102,-14
C=CCn1c(C(C)Oc2ccc(Cl)cc2)n[nH]c1=S (configuration not stated),65*,102,98,-14
COC(=O)Cc1cc(OC(C)=O)n(-c2ccc(F)cc2)n1,-102,105,108,-25
CN(C)C(=S)NC(Cc1ccccc1)c1ccccc1 (configuration not stated),0,103,112,-11
CC1CC(NC(=S)NC2CC3C=CC2C3)CC(C)(C)C1 (configuration not stated),-7,105,108,-28
O=C(CCCO)N=Nc1c(O)[nH]c2ccccc12,20,104,99,-123
CCCNC(=O)c1c(C)oc2ncn(CC(C)C)c(=O)c12,-33,102,104,-1

# Two records picked at random from those above, as already listed:
SMILES,MbtI inh,Polio RdRp inh,Polio RdRp inh intensity,MenB inh
CCOC(=O)N1CCC(NC(=O)Nc2cn(C)c(=O)c3ccccc23)CC1,2,101,102,-14
O=C(CCCO)N=Nc1c(O)[nH]c2ccccc12,20,104,99,-123

# (more compounds)
SMILES,MbtI inh,Polio RdRp inh,Polio RdRp inh intensity,MenB inh
Cc1ccc(C)n1-c1ccccc1C1C=NNC1=O (configuration not stated),-2,109,112,-49
CCC(=O)Nc1ccc(NC(=O)c2ccc(OC)cc2OC)cc1,-11,107,99,-22
COc1ccc(-c2noc(CSCC(=O)NC3CC3)n2)cc1,-11,104,103,-12
CC1CCC2C(O1)c1ccccc1OC2(C)C (configuration not stated),-5,104,102,5
Cc1ccc(C(=O)N2c3ccccc3CC2C)o1 (configuration not stated),25,102,102,-10
O=C1C2C3c4ccccc4C(c4ccccc43)C2C(=O)N1O (configuration not stated),-19,100,103,-23
Cc1nn2c3c(cnc2c1-c1ccccc1)C(=O)CC(c1ccc(C(C)C)cc1)C3 (configuration not stated),-4,106,105,-8
N#Cc1cnc2ccnn2c1N,-4,104,97,-22
O=C(Cn1cc(C(=O)c2ccco2)c2ccccc21)NCC1CCCO1 (configuration not stated),8,104,101,-1
CCc1ccccc1Nc1nc(N)nc(COC(=O)CSCc2c(C)noc2C)n1,-5,101,109,2
CCCn1c(=O)c(C(=O)NCc2ccccc2)c(O)c2ccccc21,.,114,117,1
CNC(=O)CSc1nc2cc(Cl)ccc2c(=O)n1CC1CCCO1 (configuration not stated),9,102,99,-14
CCn1c(=O)n(CC)c2cc(Nc3nc4ccccc4c4nncn34)c(Br)cc21,12,99,100,9
CC(Oc1ccccc1)C(=O)NN1Cc2ccccc2C1=N (configuration not stated),-1,96,102,-9
CCOc1ccc(C(F)(F)F)cc1NC(C)=O,.,101,105,-5
Cc1cc(C)n(-c2nc3cc(Cl)ccc3nc2NCCN2CCOCC2)n1,-36,105,109,-25
O=C(c1ccc2c(c1)C(=O)N(Cc1ccncc1)C2=O)N1CCN(S(=O)(=O)c2ccc(OC(F)(F)F)cc2)CC1,-2,99,105,5

# Two of these compounds in another layout.
# Fields: MbtI inh | Polio RdRp inh | Polio RdRp inh intensity | MenB inh
O=C(OCCN1CCOCC1)c1ccccc1
 : -12 | 105 | 100 | -9
COc1ccc(CN2CCCC(C(=O)Nc3ccc(OC)c(OCC(C)C)c3)C2)cc1OC (configuration not stated)
 : 3 | 103 | 102 | -4

# Exported tab-delimited: entries from further up
SMILES	MbtI inh	Polio RdRp inh	Polio RdRp inh intensity	MenB inh
CCCCN(C)C(=O)Cn1cc(S(=O)(=O)NC)c(S(=O)(=O)NC)c1	0	101	98	15
O=C(NCC1CCN(c2ccc(S(=O)(=O)N3CCOCC3)cc2)CC1)c1ccccc1	14	100	102	-91
COC(=O)C1=CN(C)C=C(C(=O)OC)C1c1ccc(C(F)(F)F)cc1	-93	103	103	-21
